# Assay outcomes: PubChem BioAssay, ICCB-Longwood Screening Facility, Harvard Medical School
# GIV Gai3 FP – inhibitors of GIV GBA-motif binding to rat Galpha-i3. percent of control (FP), % (concentration not given with the values). Galpha-i3/FITC-GIV peptide fluorescence polarization, 90 min; hits give low values; scaled: aluminum fluoride 0%, vehicle 100%. actives 0.42% (n = 210,000). AID 1224905;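 active = replicate mean at 85% of control or lower, very high polarization wells dropped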;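 note: wells of about 15 µL received 100 nL stock; the first replicate is given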
# Target sequence (P08753 whole entry, looked up): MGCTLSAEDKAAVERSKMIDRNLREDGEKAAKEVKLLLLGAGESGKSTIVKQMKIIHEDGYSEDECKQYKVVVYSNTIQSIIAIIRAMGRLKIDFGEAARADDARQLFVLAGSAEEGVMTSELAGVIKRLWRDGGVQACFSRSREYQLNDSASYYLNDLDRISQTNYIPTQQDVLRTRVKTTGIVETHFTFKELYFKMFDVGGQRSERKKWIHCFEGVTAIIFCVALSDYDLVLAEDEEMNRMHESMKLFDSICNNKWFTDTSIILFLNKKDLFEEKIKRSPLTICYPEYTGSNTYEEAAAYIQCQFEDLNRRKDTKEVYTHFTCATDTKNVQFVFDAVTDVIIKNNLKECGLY
# HCMV NEC inh – inhibitors of HCMV UL50-UL53 nuclear egress complex interaction. HTRF UL50-UL53 interaction, normalized percent inhibition. AID 1918969. actives 0.15% (n = 190,000). inhibition, % (concentration not given with the values);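 active = both replicates at 50% or more, plus weaker picks with an unusually low signal ratio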;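 note: stock transfer was 100 nL into about 20 µL; 0% = negative control wells and 100% = wells with untagged competitor protein; inactives centre near -12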
# Sa growth 42C – inhibitors of Staphylococcus aureus growth at 42 °C. S. aureus RN4220 growth, OD600, 20 h; hits give low values. relative growth, % (concentration not given with the values). actives 0.53% (n = 170,000). AID 720641;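 active = growth at 42 °C up to 50% and 20 or more points under that at 30 °C, or under 10% at both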;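 note: 300 nL library stock went into each well; scaled to the means of positive and negative controls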
# Sa growth 42C second temp – recorded beside Sa growth 42C, whose call it bears; relative growth, %; measured here: growth at 30 °C;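 optical density after 20 h as mean of two plates; 100% = untreated growth and lower means inhibition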
# * = called active by the depositor; · = no result given; & = joins results of further samples.
molecule,GIV Gai3 FP,HCMV NEC inh,Sa growth 42C,Sa growth 42C second temp
CC(=O)OC1CCC2(C)C3C(=O)CC4(C)C(=O)CCC4C3CCC2(C)C1 (stereo unspecified),105,-8,114,90
Cc1ccc(-c2nc(CN3C(=O)CN=C(c4ccccc4Cl)c4cc(Cl)ccc43)c(C)o2)cc1,97,-20,121,96
COC(=O)C(O)(c1ccc(N(C)C)cc1)C(F)(F)F (stereo unspecified),·,2,104,94
C#CCOC(=O)C1=CCCN(C)C1,106,-15&-31,·,·
NC(=O)COC(=O)COc1ccc(Cl)cc1Cl,·,-36,92,82
Cc1ccc(Cn2cccc(C(=O)Nc3ccc4c(c3)OCCO4)c2=O)cc1,100,·,140,90
CC(N)c1cccc(Cl)c1Cl (stereo unspecified),106,-19,·,·
C[C@]12CCC3C(CC[C@H]4C[C@H](O)CC[C@]34C)C1CC[C@@H]2C(=O)CO (stereo partly specified),100,-14,·,·
COc1cc(C2NN=C3C4CCN(CC4)C32)cc(OC)c1OC (stereo unspecified),103,6,106,102
N#Cc1sc2nc3c(cc2c1N)CCC3,100,-23,120,110
Cc1cc(Br)ccc1N1C(=O)CC(=O)NC1=S,101,·,88,82
Cc1cc(/C=C2\C(=O)NC(=S)N(c3ccc(Cl)cc3)C2=O)c(C)n1-c1cc(C(=O)O)cc(C(=O)O)c1,95,1,·,·
Cn1cncc1C(O)c1ccccc1 (stereo unspecified),104,6,93,93
O=C(c1cnn(-c2ccccc2)c1-n1cccc1)N1CCC2(CC1)OCCO2,108,·,98,96
CN1CCCN(C(=O)Cc2cccs2)CC1,99,-16,103,108
CC1(C)CC2=[N+]([O-])CN(O)C2C(C)(C)N1O (stereo unspecified),101,-13,81,89
CCCc1nc2ccccc2c(=O)n1-c1ccccc1,106,0,88,84
Nc1ccc(Br)cc1C(=O)c1ccccc1,103,·,71,74
C[N+]1(CCOCC2CCC[N+]3(C)CCCCC23)CCCCC1 (stereo unspecified),·,0,127,112
Cc1nc(SCc2c(F)cccc2Cl)nc(OC(=O)N(C)C)c1C,98,3,109,106
C=CCc1c(C)nc(-c2ccc(F)c(Cl)c2)nc1OC(=O)N(C)C,96,-5,108,99
Cc1cccc(-n2c(/C=C/c3cn(C)c4ccccc34)nc3ccccc3c2=O)c1,111,28,99,91
CC12C/C(=C(\O)C(F)(F)F)C(=O)C=C1CCC1C2CCC2(C)C(O)CCC12 (stereo unspecified),101,-15,75,86
O=c1c2ccccc2nc(-c2ccco2)n1-c1ccc(Cl)cc1,104,-16,112,96
COc1ccc(CCC(C)N)cc1 (stereo unspecified),106,4,95,82
N#CC(C#N)=Cc1ccc(N2CCCCC2)cc1,166,-12,105,87
CC1CN=C(Nc2cccc3ccccc23)S1 (stereo unspecified),·,-35,82,72
Cc1ccc(C2=NC3(CCNCC3)NC2=S)cc1,109,-33,84,85
Cc1c(C(c2ccc(O)cc2)c2c(O)c3ccccc3oc2=O)c(=O)n(-c2ccccc2)n1C (stereo unspecified),101,10,91,86
O=C(Cc1ccccc1)Oc1cccc(-n2cnnn2)c1,101,0,100,106
Cc1ccc(Oc2c(C)nc(-c3ccccc3)nc2OC(=O)N(C)C)cc1,107,4,95,103
O=C(Nc1ccc2c(c1)OCO2)c1cccn(Cc2cccc(F)c2)c1=O,102,·,150,92
C=CCN1C(=O)NC(=O)/C(=C\c2ccc(O)c(O)c2)C1=O,105,·,87,71
CC(C)C12CN3CC(C(C)C)(CN(C1)C3c1ccccn1)C2=O (stereo unspecified),102,-16,58,55
CN1CCN(c2cn[nH]c(=O)c2Cl)CC1,106,-15,88,79
CN(C)C1(CNC(=O)Cc2ccccc2F)CCCCC1,·,-2,105,80
CCSc1nnc(C2CCNCC2)o1,102,-23,·,·
COc1cc(NC(=O)CN2C3CCC2CC(O)(c2cccnc2)C3)cc(OC)c1 (stereo unspecified),103,16,71,87
COP1(=S)/C(=C2/N(C)c3ccccc3C2(C)C)C=NN1C (stereo unspecified),·,-3,94,97
CC(=O)N[C@@H](C)C(=O)NCc1ccc2c(c1)OCO2,·,-3,87,97
NCCc1c[nH]c2ccccc12,109,-13,·,·
CC(C)P(c1ccc(C#N)cc1)C(C)C,·,5,78,92
CCOc1ccc2nc(NC(=O)c3cccn(Cc4ccc(Cl)cc4)c3=O)sc2c1,98,·,94,82
O=C1N(c2cccc(Cl)c2)C(c2cccnc2)N2CCCN12 (stereo unspecified),103,12,·,·
NNC(=O)c1ccc(O)cc1,98,-4,·,·
O=C(C1CC(=O)N(C2CCCCCCC2)C1)N1CCC2(CC1)OCCO2 (stereo unspecified),104,-26,87,91
CS(=O)(=O)N1CCCC(C(=O)N2CCC3(CC2)OCCO3)C1 (stereo unspecified),98,3,121,91
Cc1cccc(-c2nc(C)cc(OC(=O)N(C)C)n2)c1,99,-5,97,77
CN1N=C(c2ccccc2)NN(C)P1(=S)c1ccccc1 (stereo unspecified),·,-6,107,69
CC(C)(C)NC(=O)[C@@H]1C[C@@H]2CCCC[C@@H]2CN1,105,-25,94,92
Cc1cc(NC(=O)c2cccn(Cc3ccccc3)c2=O)no1,98&109,·,146,86
O=C(c1cc(=O)[nH]c2ccc(Br)cc12)N1CCC2(CC1)OCCO2,108,2,78,101
CCN(CC)C(=O)CN1C(=O)CN=C(c2ccc(OC)cc2)c2c1sc1c2CCCC1,104,-28,·,·
COc1cc(/C=C/c2nc3ccccc3c(=O)n2-c2ccc(Br)c(C)c2)ccc1O,166,·,100,92
CC(=O)NC(C(=O)NCc1ccc(C)cc1)C(C)C (stereo unspecified),·,-8,85,89
O=C(c1ccccc1)c1cn(Cc2ccc(F)cc2)c2ccccc12,98,·,79,89
COc1ccc(-n2c(-c3ccco3)nc3ccccc3c2=O)cc1,105,·,99,99
Cc1cc(C=C2C(=O)N(C)C(=O)N(C)C2=O)c(C)n1-c1ccc(Br)cc1,100,-11,·,·
N#C/C(=C\c1cnc[nH]1)S(=O)(=O)c1cccs1,102,-24,95,77
CN1CCN(c2nc3c(c(=O)[nH]2)CCCC3)CC1,·,-11,92,94

# Next part:
molecule,GIV Gai3 FP,HCMV NEC inh,Sa growth 42C,Sa growth 42C second temp
O=C1CC2CCCC(C1)N2Cc1ccccc1,103,3,97,96
Cc1ccccc1OCC(=O)N1CCN(CCc2ccccn2)CC1,96,-18,107,84
Clc1cccc(C2NCc3ccccc3-n3cccc32)c1 (stereo unspecified),·,0,91,69
O=c1cccc2n1CC1CC2CN(c2ncnc3c2cnn3-c2ccc(Cl)cc2)C1 (stereo unspecified),105,12,88,91
CN(C)C(=O)Oc1nnc(SCCS(=O)(=O)c2ccc(F)cc2)n1C1CC1,104,-19,96,89
COC(=O)c1ccc(-n2c(C)nc3ccccc3c2=O)cc1,104,-9,101,86
CC1CN(CCC(=O)Nc2ccc(Cl)cc2C(=O)c2ccccc2)CC(C)O1 (stereo unspecified),105,8,112,100
Cc1ccc(Cl)cc1NC(=O)N(Cc1ccc2c(c1)OCO2)C1CCN(Cc2ccccc2)CC1,102,·,90,84
CN1C(=O)C(Cc2cccs2)C(=O)N(C)C1=O,106,0,106,83
N#Cc1cc2c(nc1SCC(=O)Nc1cccc(F)c1)C1CCN2CC1,107,-18,93,95
COc1ccc(/C=C/C(=O)N2c3ccc(C)cc3C3CN(C)CCC32)cc1 (stereo unspecified),·,-20,99,97
CN(C)c1ccc(/C=C/C=C2/C(=O)NC(=O)N(c3ccccc3)C2=O)cc1,255,·,99,98
N#Cc1ccc(NC(=O)CSC2=Nc3ccccc3C3CC=NN23)cc1Cl (stereo unspecified),·,-50,110,96
Nc1ccc(S(=O)(=O)N2CCCCC2c2cccnc2)cc1 (stereo unspecified),103,-16,100,90
CCOc1ccccc1NC(=O)N1Cc2ccccc2-n2cccc2C1c1ccc(Cl)cc1 (stereo unspecified),102,-26,·,·

# Reformatted with values under each structure: part of the list above.
# Every second line gives: GIV Gai3 FP | HCMV NEC inh | Sa growth 42C | Sa growth 42C second temp
- CC(=O)NC(C(=O)NCc1ccc(C)cc1)C(C)C (stereo unspecified)
→ · | -8 | 85 | 89
- Cc1ccccc1OCC(=O)N1CCN(CCc2ccccn2)CC1
→ 96 | -18 | 107 | 84
- Cn1cncc1C(O)c1ccccc1 (stereo unspecified)
→ 104 | 6 | 93 | 93
- COP1(=S)/C(=C2/N(C)c3ccccc3C2(C)C)C=NN1C (stereo unspecified)
→ · | -3 | 94 | 97
- CC(=O)N[C@@H](C)C(=O)NCc1ccc2c(c1)OCO2
→ · | -3 | 87 | 97
- N#CC(C#N)=Cc1ccc(N2CCCCC2)cc1
→ 166 | -12 | 105 | 87
- CN(C)c1ccc(/C=C/C=C2/C(=O)NC(=O)N(c3ccccc3)C2=O)cc1
→ 255 | · | 99 | 98

# (continued)
molecule,GIV Gai3 FP,HCMV NEC inh,Sa growth 42C,Sa growth 42C second temp
O=P(O)(O)C(Cl)(Cl)P(=O)(O)O,105&105,-43&-16,92,93
CC(C)(C)c1nc(N2CCN(C(=O)c3ccco3)CC2)c2nnn(Cc3ccccc3Cl)c2n1,103,7,95,75
CC(N)C(=O)c1cccs1 (stereo unspecified),109,6,100,98
O=S(=O)(NC1CN2CCC1CC2)c1ccc(Cl)cc1 (stereo unspecified),·,0,102,89
COC(=O)c1cc2c(s1)=NC=NP=2(N1CCOCC1)N1CCOCC1,·,-18,113,89
O=C1NC(=O)N(Cc2ccccc2)C(=O)/C1=C\c1ccccc1,15*,·,88,101
C1=C(c2c[nH]c3ccccc23)CCNC1,-23*,-26,49,1
CN(C)P1(N(C)C)=Nc2c(c(N)nn2C)C(c2ccccc2)=N1,·,-14,95,85
CN1/C(=C\C=C2C(=O)NC(=O)NC2=O)C(C)(C)c2ccccc21,29*,-78,90,83
Cn1cc(C2=CCN(CC(=O)Nc3ccc(F)cc3)CC2)cn1,106,-42,·,·
Clc1ccc(NC2=NCCCS2)cc1Cl,·,-4,84,98
c1ccc2c(CCNC3CCNCC3)c[nH]c2c1,106,3,97,99
Cc1ccc(-n2nc(C)c3c2NC(=O)CSC3c2ccc3c(c2)OCO3)cc1Cl (stereo unspecified),101,-12,·,·
CC[C@]12C=CCN3CCC4(c5ccc(OC)cc5N(C)[C@H]4C(O)(C(=O)OC)[C@@H]1OC(C)=O)C32 (stereo partly specified),106&94,-25&1,83,68
CCn1cc(C=C2C(=O)NC(=O)NC2=O)c2ccccc21,94,-68,89,87

# In the list so far, these contain two or more sulfur atoms.
molecule,GIV Gai3 FP,HCMV NEC inh,Sa growth 42C,Sa growth 42C second temp
N#C/C(=C\c1cnc[nH]1)S(=O)(=O)c1cccs1,102,-24,95,77
CN(C)C(=O)Oc1nnc(SCCS(=O)(=O)c2ccc(F)cc2)n1C1CC1,104,-19,96,89

# Going on with the list:
molecule,GIV Gai3 FP,HCMV NEC inh,Sa growth 42C,Sa growth 42C second temp
CCOc1ccc(N2Cc3ccccc3C2=N)cc1,·,-36,107,82
CC(C)OP(C)(=O)C(=O)Oc1ccccc1 (stereo unspecified),·,-1,120,91
Nc1ccc(NC2=NCCCS2)cc1,98,2,122,99
CN(C)C1=NP(N(C)C)(N(C)C)=NC(c2ccccc2)=N1,·,-23,109,87
CCOP(=S)(OCC)N1CCOCC1,97,101,107,98
O=c1cccc2n1CC1CC2CN(Cc2nnc(-c3cccc(Br)c3)o2)C1 (stereo unspecified),96,-12,·,·
CCOc1ccc(-n2c(/C=C/c3ccccc3)nc3ccccc3c2=O)cc1,105,·,107,97
CCC1CCCCN1P(=O)(c1ccc(C)o1)C(C)(C)C (stereo unspecified),·,-37,76,85
CCOC(=O)C1=C(c2ccccc2)OC(N)=C(C#N)C12C(=O)Nc1ccc(Br)cc12 (stereo unspecified),103,-15,·,·
O=c1c2ccccc2nc(/C=C/c2cc(Br)ccc2O)n1-c1cccc(O)c1,109,-22,·,·
CC(C)(C)c1ccc(OCC(=O)Nc2ccc(Cl)cc2C(=O)c2ccccc2)cc1,97,-43,100,89
CCC(COC(=O)c1cc(OC)c(OC)c(OC)c1)(c1ccccc1)N(C)C (stereo unspecified),·,-14&-65,97,85
CC1(C)CC(NC(=O)CN2CCCC2=O)CC(C)(C)N1,99,-32,90,79
FC(F)(F)c1cccc(N2CCN(c3ncnc4nc[nH]c34)CC2)c1,102,-8,86,81
Cc1cc(C(C#N)c2ccc(Cl)cc2)c(Cl)cc1NC(=O)c1cc(I)cc(I)c1O (stereo unspecified),104,-2&6&-7,15,19
CN(C)CC(C)(O)c1ccc(Cl)cc1 (stereo unspecified),·,-29,95,86
CCC1(c2ccccc2)C(=O)N(COC)C(=O)N(COC)C1=O,104,-4,101,100
CN1C(=O)C(=Cc2ccc(OCc3c(F)cccc3Cl)cc2)C(=O)N(C)C1=O,107,14,·,·

# Some of the compounds tested. The share of hits here may be higher or lower than overall.
